Screens (PubChem BioAssay)
OX1R antagonist = OX1R (HCRTR1) antagonists, primary screen, fluorescence, CHO/OX1R cells, Fluo-8 calcium, orexin A | Orexin/Hypocretin receptor type 1 (Homo sapiens), O43613 | Fluo-8 calcium fluorescence | inhibition, % at 5 µM | actives 0.43% (n = 330,000) | AID 434989, 2010;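 active means inhibition above its plate's threshold, mean inhibition of all tested compounds on the plate plus 3 SD, cut at about 37% in these data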;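 further: 0% = orexin A challenge wells and 100% = SB-334867-A antagonist wells; not every result past the cut was called active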
Target sequence (O43613 whole entry, looked up): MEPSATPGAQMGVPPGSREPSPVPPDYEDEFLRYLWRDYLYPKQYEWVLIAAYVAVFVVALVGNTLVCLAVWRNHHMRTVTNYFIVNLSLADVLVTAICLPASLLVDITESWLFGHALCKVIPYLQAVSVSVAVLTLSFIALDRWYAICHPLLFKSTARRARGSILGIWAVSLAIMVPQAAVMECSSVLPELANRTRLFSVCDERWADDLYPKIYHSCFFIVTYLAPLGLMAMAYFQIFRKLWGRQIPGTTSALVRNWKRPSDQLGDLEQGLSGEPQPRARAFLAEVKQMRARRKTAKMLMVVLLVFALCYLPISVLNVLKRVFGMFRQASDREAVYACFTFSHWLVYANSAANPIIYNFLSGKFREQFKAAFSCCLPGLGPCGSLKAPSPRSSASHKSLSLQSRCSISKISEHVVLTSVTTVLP
Numbers without * were called inactive. Only part of the results is shown, and most or all hits are left out here.

SMILES | OX1R antagonist
CCOc1ccc(Cc2nc(N)nc(N)n2)cc1 | -10.3
CN(CCO)Cc1csc2ccc(Br)cc12 | -7.8
Cc1ccc(CNC(=O)c2ccc(C#CC(C)(C)O)s2)cc1 | -17.5
CN1C(=O)C(=O)N(c2cccc(C(F)(F)F)c2)C1=O | 2.8
Cc1ccccc1NC(=O)c1cccc(Cn2cc(Br)c([N+](=O)[O-])n2)c1 | -35.1
NS(=O)(=O)c1cccc(NC(=S)NC(=O)C23CC4CC(CC(C4)C2)C3)c1 | -43.9
Cn1c(=O)c2c(nc(N3CCCCC3)n2CCCNC2=NCCCC2)n(C)c1=O | 7.0
CCOc1cc(NC(=S)NCc2ccco2)c(OCC)cc1NC(=O)C1CC1 | -28.3
Nn1c(SCC(=O)Nc2ccc(F)c(F)c2)nnc1C1CCCCC1 | -40.4
COc1cccc(C2CC(c3ccccc3Cl)n3nnnc3N2)c1 (centres undefined) | -22.6
COc1ccccc1-c1nc(-c2ccc(C(=O)O)cc2)no1 | 5.0
Cc1ccc(-n2nnnc2SCC(=O)Nc2ccc3c(c2)COC3=O)cc1C | -10.8
Cc1ccc(Cl)cc1NC(=O)COC(=O)Cn1cnc2c1c(=O)n(C)c(=O)n2C | -15.2
CCOc1ccc(S(=O)(=O)c2cn(C)c3cc(OC)c(OC)cc3c2=O)cc1 | -13.6
Cc1nn(CCC(=O)N2CCN(S(=O)(=O)c3ccccc3)CC2)c(C)c1C | -14.9
CN(CC(=O)NCc1ccccc1)Cc1ccc(Cl)cc1 | -18.5
Cc1ccc(NC(=O)CCc2nc3sc4c(c3c(=O)[nH]2)CCCC4)c(Br)c1 | -26.1
Cc1ccccc1NC(=O)C1CC(=O)N(c2ccc3c4c(cccc24)CC3)C1 (centres undefined) | -17.1
O=C(Nn1c(C2CCC2)nc2ccccc2c1=O)c1cccs1 | -23.6
O=C(CCSc1nc2ccccc2o1)N1CCOCC1 | -6.1
Cc1ccc(Cl)cc1OCC(=O)NCCOC(=O)Nc1sc(=S)n(C)c1C | -18.8
CCOc1ccc(NS(=O)(=O)c2ccc(-c3coc(C)n3)cc2)cc1 | -20.5
COc1cc(C(=O)NCc2nnc(SCC(=O)Nc3nc4ccc(C)cc4s3)o2)cc(OC)c1OC | -10.7
OC(CN1CCN(c2ccccc2)CC1)c1ccc2c(c1)CCN2 (centres undefined) | -11.8
O=C(Cc1ccc(Cl)cc1)Nc1cccnc1 | -26.5
NS(=O)(=O)c1ccc(CCNC(=O)CNC(=O)Cc2ccccc2)cc1 | -6.9
CCOC(=O)c1ccccc1NC(=O)COC(=O)CCC(=O)N1CCOCC1 | -10.3
CN(CCNC(=O)c1cc2c(=O)n(C)c3ccccc3c2n1C)Cc1ccccc1 | -31.6
COc1ccc(NC(=O)CSc2nc3nc(C)cc(C)n3n2)cc1 | -20.0
COc1ccc(OCC(=O)Nc2ccc(N3CCN(Cc4ccccc4F)CC3)cc2)cc1 | -9.8
COc1ccc(-c2cc(CCCC(=O)NCc3ccccn3)no2)cc1 | -33.6
N#Cc1nc(COc2ccc(Br)cc2)oc1N1CCCC1 | -12.8
CCN(C(=O)CCc1ccccc1)C1CCCCC1 | -8.4
N#CCSc1nnc(Nc2ccccc2)s1 | -3.6
Cc1ccccc1N/C(=N/S(=O)(=O)c1ccccc1)c1ccc(F)cc1 | -6.8
Cc1ccsc1/C=N/NC(=O)CNC(=O)c1ccc(S(=O)(=O)N2CCOCC2)cc1 | -1.6
CC(C)C(=O)NC(C)C(c1cccs1)N1CCN(C)CC1 (centres undefined) | -3.1
O=C(Cn1c(C(=O)NCCCN2CCOCC2)cc2sccc21)c1ccccc1 | -11.5
COc1ccc(NC(=S)NC(NC(C)=O)C(Cl)(Cl)Cl)c([N+](=O)[O-])c1 (centres undefined) | -11.0
O=C(NCCS(=O)(=O)N1CCN(c2ccccc2F)CC1)c1cccc(Br)c1 | -26.8
CC1Cc2ccccc2N1C(=O)c1cnc2n(c1=O)CCS2 (centres undefined) | -23.0
CC(=O)C(Sc1ncnc2sc3c(c12)CCCC3)C(C)=O | -26.7
CC(=O)c1cccc(NC(=O)NNC(=O)c2ccc3ccccc3c2)c1 | -10.8
Cc1cc(=O)n(CCO)c(O)c1C#N | -11.5
COc1ccc(/C(N)=N/OC(=O)c2cccs2)cc1OC | -15.8
COc1ccc2nc(Nc3nc(C)c(CCC(C)C)c(=O)[nH]3)nc(C)c2c1 | -1.8
COc1ccccc1NC(=O)Oc1ccc(NC(=O)c2ccco2)cc1 | -3.3
COC(=O)c1ccc(N2C(=O)c3cc(N4CCOCC4)c([N+](=O)[O-])cc3C2=O)cc1 | -2.2

Of the compounds above, 9 have a thiophene ring, fused or not.
SMILES | OX1R antagonist
CN(CCO)Cc1csc2ccc(Br)cc12 | -7.8
Cc1ccc(CNC(=O)c2ccc(C#CC(C)(C)O)s2)cc1 | -17.5
Cc1ccc(NC(=O)CCc2nc3sc4c(c3c(=O)[nH]2)CCCC4)c(Br)c1 | -26.1
O=C(Nn1c(C2CCC2)nc2ccccc2c1=O)c1cccs1 | -23.6
Cc1ccsc1/C=N/NC(=O)CNC(=O)c1ccc(S(=O)(=O)N2CCOCC2)cc1 | -1.6
CC(C)C(=O)NC(C)C(c1cccs1)N1CCN(C)CC1 (centres undefined) | -3.1
O=C(Cn1c(C(=O)NCCCN2CCOCC2)cc2sccc21)c1ccccc1 | -11.5
CC(=O)C(Sc1ncnc2sc3c(c12)CCCC3)C(C)=O | -26.7
COc1ccc(/C(N)=N/OC(=O)c2cccs2)cc1OC | -15.8

(more compounds)
SMILES | OX1R antagonist
N=c1oc2ccccc2cc1C(=O)N/N=C/c1ccccc1 | -24.5
COc1cc(NC(=O)c2c(F)cccc2F)nc(OC)n1 | -16.6
ClCC1NCC(c2ccccc2Cl)c2c1[nH]c1ccccc21 (centres undefined) | -12.8
COc1cc2c(cc1OC)CN(Cc1ccc(OC)c(C)c1OC)CC2 | -14.3
O=C(Cn1c(=O)oc2ccccc21)Nc1nc(-c2ccccc2)cs1 | -1.7
COC(=O)CCCNC(=O)c1ccc2nc(Cc3ccc(OC)cc3)oc2c1 | -15.6
Cn1cc(CCNC(=O)CC2C(=O)NCCN2Cc2cccc(Oc3ccccc3)c2)cn1 (centres undefined) | -27.2
COCCn1c(N)c(N(Cc2ccccc2)C(=O)Cc2ccccc2F)c(=O)[nH]c1=O | -20.6
OCCOCCOc1ccccc1OCCOCCO | -0.6
COc1ccc(Br)cc1CNC(C)c1ccccc1 (centres undefined) | -11.3
CC(C)CCn1nnnc1CN1CCN(C(=O)c2ccco2)CC1 | -5.6
CC(CCCCC(=O)Nc1ccc(C(F)(F)F)cc1)NCCc1cnc[nH]1 (centres undefined) | -8.5
CC(C)CN(C(=O)COC(=O)c1ccc2ccccc2n1)C1CCS(=O)(=O)C1 (centres undefined) | -12.0
COC(=O)CCn1nnc(-c2ccc(C(C)C)cc2)n1 | -10.1
Cc1cccc(-n2cnc(C(=O)N/N=C\c3ccc(Br)cc3)c2)n1 | -25.9
COc1ccc(CNC(=O)CCCn2nc([N+](=O)[O-])cc2C)cc1 | -4.3
CCC(C)(C)n1nnnc1C(c1ccccn1)N1CCCCC1 (centres undefined) | -7.8
O=C(Nc1ccccc1F)c1ccc(S(=O)(=O)NCC2CCCO2)cc1 (centres undefined) | 1.4
S=C(Nc1ccccc1Cl)NC1CC2CCCC(C1)N2C1CC1 (centres undefined) | -5.8
Cc1oc(C(=O)O)cc1CSCc1cc(C(=O)O)c(C)o1 | -2.8
CCCCNS(=O)(=O)c1ccc(NC(=O)c2cccs2)cc1 | -17.1
COc1ccc(NC(=O)COc2cc(O)c3c(c2)OC(C)(C)CC3=O)cc1 | -17.4
O=C(COc1ccc2ccccc2c1)NNC(=O)c1cnccn1 | -11.4
Cc1ccc(NC(=S)NCc2ccccn2)cc1 | -10.2
Cc1ccc(NC(=O)CN(C)S(=O)(=O)c2cnc[nH]2)c(C)c1 | -5.8
S=c1[nH]ncn1NCc1ccc(Cl)cc1Cl | -9.4
C=CCOc1cccc(C(=O)NC(c2ccccc2)C(C)C)c1 (centres undefined) | -18.0
COc1ccc([C@@H]2CC=C(C(=O)O)[C@H](c3ccccc3F)N2S(=O)(=O)c2ccc(C)cc2)cc1OC | -5.8
COc1ccc(N2CCN(C(=O)COC(=O)Cc3ccc(F)cc3)CC2)cc1 | -11.1
CCc1ccc2[nH]c(=O)c(C(c3nnnn3CC3CCCO3)N3CCN4CCCC4C3)cc2c1 (centres undefined) | -1.8
O=c1c(CN2CCN(Cc3ccccc3)CC2)coc2ccc(Cl)cc12 | -11.8
O=C(COc1ccc(Cl)cc1Cl)N1CCCN(C(=O)COc2ccc(Cl)cc2Cl)CC1 | -13.6
CCOc1ccc(OCC)c(NC(=O)CCCN2C(=O)c3cccnc3C2=O)c1 | -12.3
COC(=O)C1=C(CN2CCc3ccccc32)NC(=O)NC1c1cc(C)ccc1C (centres undefined) | 11.2
Cc1c(NC(=O)C(C)OC(=O)c2cccnc2)c(=O)n(-c2ccccc2)n1C (centres undefined) | -6.6
CCOc1ccccc1C(=O)NN1CCOCC1 | -0.3
O=C1c2ccccc2C(=O)N1CCCc1nc2ccccc2c(=O)n1-c1cccnc1 | -20.4
CCN1C(=O)[C@H]2[C@@H](c3ccc(-c4ccc5c(c4)OCO5)c(OC)c3)N[C@@](Cc3ccccc3)(C(=O)OC)[C@H]2C1=O | -17.2
Cc1nc2cc(CO)ccc2n1C | -12.0
CN(C)C(=O)c1cc([N+](=O)[O-])cc([N+](=O)[O-])c1N(C)C | -2.5
CCC(C)NCC(=O)Nc1sc2c(c1C(N)=O)CCC2 (centres undefined) | -17.2
CCn1c(CCNC(=O)c2ccccc2Cl)n[nH]c1=S | -10.7
Cc1ccc(C(=O)OC(C(=O)Nc2ccc(Cl)cc2C(F)(F)F)c2ccccc2)cc1 (centres undefined) | -22.2
O=C(COC(=O)c1ccc(S(=O)(=O)N2CCCC2)cc1)Nc1ccc(N2CCOCC2)cc1 | -15.4
Cc1ccccc1-n1nnnc1SC(C)C(=O)NC1CCCc2ccccc21 (centres undefined) | -41.5
CN(C)S(=O)(=O)c1cc(S(=O)(=O)N(C)C)c(Cl)cc1N | -2.8
CCOC(=O)Cc1csc(NC(=O)COc2ccccc2OC)n1 | -3.5
CCOc1ccc(NC(=O)CCCn2nc(C)c3c(C)n(-c4ccccc4)nc3c2=O)cc1 | -33.7

Some of these compounds in order of molecular weight, highest first.
SMILES | OX1R antagonist
Cc1ccccc1NC(=O)C1CC(=O)N(c2ccc3c4c(cccc24)CC3)C1 (centres undefined) | -17.1
O=C(Nn1c(C2CCC2)nc2ccccc2c1=O)c1cccs1 | -23.6
N#CCSc1nnc(Nc2ccccc2)s1 | -3.6

(continued)
SMILES | OX1R antagonist
O=C1CSC(=S)N1/N=C/c1ccc(C(F)(F)F)cc1 | -3.6
C=CCC1Cc2c(cccc2[N+](=O)[O-])C(CC=C)N1 (centres undefined) | -5.8
CCn1cc(C(=O)OCC(=O)c2cc(C)n(-c3ccccc3F)c2C)c(=O)c2ccc(C)nc21 | -22.7
CC(=O)c1ccc(NS(=O)(=O)c2c(C)cc(C)cc2C)cc1 | -17.6
O=C(CN1C(=O)/C(=C\c2ccccc2F)SC1=S)Nc1nc2ccccc2s1 | -5.6
O=C(O)c1ccc(CNCc2cccc(Oc3ccccc3)c2)cc1 | 0.2
CCC(CC)C(=O)Nc1cc(Cl)ccc1C | -27.4
CCOc1ccc(C(C)=O)cc1CSc1nnnn1-c1ccc(O)cc1 | -1.2
O=C(CNS(=O)(=O)c1ccccc1)OCC(=O)c1ccc(F)cc1 | 1.4
N#Cc1ccccc1NC(=O)c1ccc(-c2ccccc2Cl)o1 | -45.3
Cc1ccc(C)c(-n2ccnc2SCC(N)=O)c1 | -6.2
CC1CCc2c(sc3ncnc(NCc4cccnc4)c23)C1 (centres undefined) | -39.8
COCCCN1C(=O)N(c2ccc(F)cc2)C(=O)C1CC(=O)Nc1ccc(OC)cc1 (centres undefined) | -15.4
CCC(=O)Nc1ccc(NC(=O)CCc2ccccc2)cn1 | -9.4
CC(=O)Nc1ccc(S(=O)(=O)N(C)CC(=O)OCC(=O)N(C)C2CCS(=O)(=O)C2)cc1 (centres undefined) | -8.7
CC(=O)c1ccc2oc3ccccc3c(=O)c2c1 | 5.2
CC(NC(=O)c1cccs1)C(c1cccs1)N1CCN(Cc2ccccc2)CC1 (centres undefined) | -25.7
Cc1c(/C=N/NC(=O)CNc2ccccc2)c2ccccn2c1C(=O)c1ccc(Cl)cc1 | -9.9
O=C(c1ccoc1)N1CCC2(CC1)Oc1ccc(F)cc1C(=O)C21CC(c2ccc(Cl)cc2)=NO1 (centres undefined) | -2.9
O=C(CSc1nnc2ccc(-c3ccc(Br)cc3)nn12)NCC1CCCO1 (centres undefined) | -24.7
OC1CCCN(Cc2ccccc2)C1 (centres undefined) | -1.3
COC(=O)c1cc(-c2ccccc2)n(CC(=O)O)c1C | 0.6
CCN(CC)S(=O)(=O)c1ccc(NC(=O)COC(=O)c2ccc(NC(=O)CC#N)cc2)cc1 | 0.6
CCc1cc(CNC(=O)CC2C(=O)NCCN2Cc2c(F)cccc2Cl)on1 (centres undefined) | -28.2
CCn1c(=NC(=O)CS(=O)(=O)c2ccc(C)cc2)sc2cccc(OC)c21 | -0.1
CC(C)CC(=O)Nc1sc2c(c1C#N)CC(C)(C)NC2(C)C | -11.5
O=c1[nH]nc(-c2ccc(F)cc2)cc1Cc1ccccc1 | -23.0
CCOC(=O)C1=C(C)N(C)C(=O)NC1c1cc2c(cc1Br)OCO2 (centres undefined) | -27.7
CC1(C)CC(=O)C2=C(C1)c1c(ccc3ccccc13)NC2c1ccco1 (centres undefined) | 33.6
Cc1cccc(Nc2cc(C)nc3ccccc23)c1 | -17.2
Cc1nn(C)c(C)c1CCC(=O)NC1CC(C)(C)Cc2c1cnn2-c1ccccc1 (centres undefined) | -30.4
Cc1c(C(=O)N2CCOCC2)cc(C(C)(C)C)n1-c1ccccc1 | -23.7
Cc1nc(NCc2ccco2)c2c3c(sc2n1)CCC3 | -26.6
N#C/C(C(=O)Oc1ccccc1)=C1\C=CC=CN1 | 10.9
CCc1ccccc1S(=O)(=O)Cc1ccc(C(=O)NC(C)C)o1 | -0.3
CC1CCCCN1S(=O)(=O)c1ccc(S(=O)(=O)N2CCN(c3ccc(F)cc3)CC2)cc1 (centres undefined) | -5.0
